Screens (PubChem BioAssay)
YopH inh: blocks Yersinia enterocolitica YopH tyrosine phosphatase. fluorescence Ex485/Em525. inhibition, %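 (about 10 µM by stock and volumes)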. 0.16% of 140,000 active. AID 898;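 active means inhibition of 50% or more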;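 further: controls were vehicle for no effect and minimum signal wells for full effect; inactives centre near -20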
Arbovirus anti: arbovirus infection inhibition; arbovirus infection cell-based antiviral screen; inhibition, % at 10 µM; 0.37% of 200,000 active; AID 1251;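 active means inhibition from about 30%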;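 further: bluetongue infection of BSR cells; cell survival read as ATP light after 72 h; 0% = infected wells without compound and 100% = uninfected wells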
Mtb H37Rv: M. tuberculosis H37Rv growth inhibitors, H37Rv strain (AID 1626); M. tuberculosis H37Rv growth inhibition; higher % means a stronger effect; inhibition, % at 10 µM, or IC50 in µM where a hit was titrated; 0.95% of 220,000 active;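 active means confirmed in a dose series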;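 further: bacteria incubated seven days before Alamar blue readout; 0% = bacteria only wells and 100% = bacteria with antibiotic wells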
Mtb betalactam: beta-lactam sensitization of Mtb H37Rv; M. tuberculosis H37Rv growth with meropenem, percent inhibition; hits of this screen are not shown here; inhibition, % at 25 µM; 0.27% of 330,000 active;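 active means about 74% or more and at least 40 points above the plate without the antibiotic, then above 30% in a dose series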;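 further: growth measured after seven days incubation then overnight dye step; 0% = bacteria only wells and 100% = bacteria with antibiotic; twin plates without the antibiotic show which effects depend on it; some results filed as inactive read as strong as hits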
RecA intein inh: inhibitors of M. tuberculosis RecA intein splicing. cell-free RecA intein splicing, fluorescence. 0.75% of 290,000 active. inhibition, %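 (about 9 µM by stock and volumes)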. AID 2221; in the data active means inhibition above about 30%;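 further: 0% = vehicle wells and 100% = reference inhibitor control wells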
Target sequence (P9WHJ3 whole entry, looked up): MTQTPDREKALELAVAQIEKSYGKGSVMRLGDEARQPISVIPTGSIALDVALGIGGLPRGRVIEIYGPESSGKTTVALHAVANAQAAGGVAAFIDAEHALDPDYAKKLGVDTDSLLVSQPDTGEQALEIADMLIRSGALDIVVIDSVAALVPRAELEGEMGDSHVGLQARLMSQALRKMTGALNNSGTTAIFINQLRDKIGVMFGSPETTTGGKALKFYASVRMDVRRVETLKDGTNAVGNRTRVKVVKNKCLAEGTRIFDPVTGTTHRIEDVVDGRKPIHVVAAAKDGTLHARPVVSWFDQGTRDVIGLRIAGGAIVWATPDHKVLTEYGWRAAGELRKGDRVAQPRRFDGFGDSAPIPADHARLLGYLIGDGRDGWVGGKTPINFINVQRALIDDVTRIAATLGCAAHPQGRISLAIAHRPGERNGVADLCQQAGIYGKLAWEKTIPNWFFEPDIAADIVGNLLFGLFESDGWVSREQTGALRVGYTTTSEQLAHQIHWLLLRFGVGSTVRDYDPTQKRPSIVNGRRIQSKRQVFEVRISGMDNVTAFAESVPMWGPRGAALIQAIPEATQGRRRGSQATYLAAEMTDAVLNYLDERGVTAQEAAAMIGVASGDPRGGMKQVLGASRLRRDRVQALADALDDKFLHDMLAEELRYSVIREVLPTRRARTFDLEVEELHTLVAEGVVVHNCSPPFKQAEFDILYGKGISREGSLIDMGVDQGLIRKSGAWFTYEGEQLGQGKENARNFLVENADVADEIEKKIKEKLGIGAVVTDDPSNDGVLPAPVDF
Arbovirus anti repeat: recorded beside Arbovirus anti, whose call it bears; inhibition, %; measured here: 10K subset replicate screen; many hits read low in the repeat;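 first of two repeat runs on a subset; 0% = infected and 100% = uninfected wells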
Starred values were filed as active, the others as inactive; . = not tested or not shown.

SMILES | YopH inh | Arbovirus anti | Mtb H37Rv | Mtb betalactam | RecA intein inh | others
CN1C(C)(C)CC(NC(=O)CCC(=O)NC2CC(C)(C)N(C)C(C)(C)C2)CC1(C)C | -27 | . | -3% | 15 | 0.6
COc1ccc(/C=C/C(=O)O)cc1S(=O)(=O)N1CCCc2ccccc21 | . | 13 | -1% | 3 | 0.2
CC(=O)N1CCN(C(=O)c2cc(C)nc3ccccc23)CC1 | . | 4 | 2% | 1 | 1.0
COc1cc(N2CCCC2)ccc1C=O | . | 0 | -4% | 9 | 0.4
COc1ccc(OCC(=O)NNC(=O)Cc2coc3cc(OC)ccc23)cc1 | -11 | 2 | 5% | 2 | -2.7
Cc1ccc(OCc2cc(C(=O)NC(C)Cc3cnccn3)no2)cc1C (stereo not given) | . | . | . | -3 | -3.2
COc1ccc(N(C(=O)c2ccccc2OC(C)=O)C(C)C2CC2)cc1 (stereo not given) | -21 | 1 | -8% | 1 | 2.1
CCN(CC)S(=O)(=O)c1cccc(NC(=O)c2ccc(SC)cc2OC)c1 | . | -4 | 5% | 10 | -0.7
CCOc1ccc(C(=O)N[C@H](C(=O)Nc2ccc(OC)c(S(=O)(=O)N3CCOCC3)c2)C(C)C)cc1 | . | -3 | 5% | -12 | -0.4
COc1ccc(-n2ccc(=O)c3c2CCCC3=O)cc1 | -41 | 0 | -14% | -6 | -0.2
COc1ccccc1OCCNC(=O)C(=O)c1c[nH]c2ccccc12 | . | . | 3% | -9 | 4.9
COC(=O)CSc1nc2ccc(NC(C)=O)cc2s1 | -31 | -8 | 54% | 42 | -0.3
CCCc1nc(SCc2ccc(OCC)cc2)n[nH]1 | . | . | . | -1 | 1.0
COC(=O)c1ccc(NC(=O)CCS(=O)(=O)c2ccc(Br)s2)cc1 | -7 | -2 | 2% | -3 | .
CCOC(=O)C1CCCN(C(=O)Cn2ncc3c([nH]c4ccccc43)c2=O)C1 (stereo not given) | . | . | . | 7 | 3.1
Cc1ccc([C@@H]2[C@@H]3C(=O)N(C)C(=O)[C@@H]3[C@]3(C)C(=O)N(CCO)CC(=O)N23)o1 | . | . | . | -3 | 1.4
O=C(CCN1C(=O)C2C3C=CC(C3)C2C1=O)N1CCCCC1 (stereo not given) | . | 5 | 6% | -4 | 1.4
O=C(CSc1nn(-c2ccccc2)c(=S)s1)Nc1ncccn1 | . | 4 | 5% | 2 | -1.2
Cc1onc(-c2ccccc2Cl)c1C(=O)Nc1cccc(-c2cn3cccnc3n2)c1 | -12 | -9 | 1% | -6 | .
CC(CCc1ccccc1)NC(=O)c1ccc2nc(N3CCOCC3)sc2c1 (stereo not given) | . | -2 | 9% | 9 | .
COc1ccc(/C=C/c2nnc(NC(=O)CSc3ccc(C)cc3)s2)cc1 | . | . | -2% | -5 | -2.7
Cc1cccc(NC(=O)c2ccc(S(=O)(=O)N(C)C)cc2)c1 | -42 | 15 | -1% | 1 | -0.3 | Arbovirus anti repeat=3
COc1ccc(/C=N/S(=O)(=O)c2ccccc2)cc1OC | . | 5 | 1% | 2 | 1.6
CN(C)C(=O)c1noc2cc([N+](=O)[O-])ccc12 | -17 | -1 | 4% | 1 | -2.3
COc1cc(/C=C/C(=O)c2ccc([N+](=O)[O-])o2)ccc1O | . | . | . | 101 | -18
CC1(C)CC(=O)N(c2cc(Cl)cc(Cl)c2)C(=O)C1 | . | . | . | -6 | 0.9
O=C(CSc1n[nH]c(=O)n1C1CC1)NCc1ccccc1Cl | . | 3 | -7% | -12 | 0.8
CCC1CN(C(=O)N2CCC(C(=O)NCc3ccc(F)cc3)CC2)c2ccccc2O1 (stereo not given) | . | . | . | 4 | -2.5
O=C(O)c1ccc(NS(=O)(=O)c2ccc3c(c2)OCCCO3)cc1 | . | 6 | 2% | 4 | 3.9
COc1ccc(Cc2nnc(Nc3ccccc3OC)[nH]c2=O)cc1 | . | 2 | 1% | 9 | -0.8
CCc1nnc(NC(=O)CSc2nnc(-c3ccoc3C)n2-c2ccc(C)cc2)s1 | -2 | 4 | . | -2 | 3.4
COc1cc(/C=N/NC(=O)CCn2nc(C)cc2C)ccc1O | . | . | -2% | -10 | -2.6
COc1cc(NC(=O)c2ccc(N3CC4CC(C3)c3cccc(=O)n3C4)c(NC(=O)c3ccncc3)c2)cc(OC)c1OC (stereo not given) | . | . | . | 6 | -0.1
COc1ccc(C2(c3ccc(OC)cc3)NC(=O)N(Cn3nnc4ccccc4c3=O)C2=O)cc1 | -17 | -4 | 26% | 67 | 0.3
CC(C)(C)OC(=O)N1CCC[C@H]1C(=O)N/N=C/c1cccc2nccnc12 | . | . | -9% | -11 | -2.8
Cc1ccc(-n2c(N)c(C(=O)NCc3cccnc3)sc2=S)cc1 | 17 | 2 | -10% | 8 | -1.6
N#C/C(=C\c1ccccc1)C(=O)Nc1cc(S(=O)(=O)N2CCOCC2)ccc1N1CCCC1 | -19 | 1 | -17% | -1 | 7.6
CCn1c(/C=C/c2ccc([N+](=O)[O-])o2)nc2ccccc2c1=O | -108 | -32 | <0.2µM* | 100 | -2.0
CCOC(=O)C1CCC(CNCc2ccccc2C)CC1 (stereo not given) | . | -15 | 1% | -3 | 8.0
CCOC(=O)C(NC(=O)Nc1ccc(F)cc1F)(Oc1ccccc1)C(F)(F)F (stereo not given) | -16 | -10 | -3% | 0 | -6.3
Cn1c(=O)[nH]c(=O)c2c1nc(NC1CCCCC1)n2CCO | . | 8 | 0% | -8 | -1.5 | Arbovirus anti repeat=-4
CCc1ccc(C(=O)NCc2cccs2)s1 | -23 | -6 | 20% | 7 | -1.4 | Arbovirus anti repeat=-6
N#Cc1c(N)nc2c3c(sc(=N)c2c1N)NC(=O)CC3c1ccccc1 (stereo not given) | -38 | -3 | -10% | 1 | 3.9
CCNC(=O)NCCc1c[nH]c2ccc(Cl)cc12 | -18 | -6 | -1% | 5 | -0.4
CN(Cc1c(F)cccc1Cl)C(=O)c1ccc(NS(=O)(=O)c2ccc3[nH]c(=O)[nH]c3c2)cc1 | . | . | . | -15 | 0.8
CCN(CC)C1CCN(C(=O)CCn2nnnc2CN2CCOCC2)C1 (stereo not given) | . | . | . | -14 | 1.9
O=c1c(O)cccc2cc(O)c(O)c(O)c12 | . | . | -6% | 6 | 9.9
CCN(CC)CCNC(=O)C1c2ccccc2Oc2ccccc21 | . | . | . | -4 | 1.9
CCCCn1nc2cc(C(=O)NCc3ccc4c(c3)OCO4)ccc2c1OCC | -27 | -9 | 1% | 0 | -1.8
O=C(CSc1nc(-c2ccccc2)cs1)Nc1ccccc1[N+](=O)[O-] | 3 | -1 | 3% | -5 | 14
(list continues)
SMILES | YopH inh | Arbovirus anti | Mtb H37Rv | Mtb betalactam | RecA intein inh | others
CCN1CCN(C(=S)c2ccc(OCC(=O)Nc3ccc(OC)cc3)cc2)CC1 | -24 | . | 0% | -8 | 0.2
C=CCNC(=O)c1cnc(-c2ccccc2)nc1-c1ccccc1 | . | . | . | -3 | 0.1
Fc1ccccc1Cc1noc(CN2CCCC(CN3CCOCC3)C2)n1 (stereo not given) | . | 4 | 11% | 4 | 0.6
CCC1(C)CC(c2csc(N)n2)CCO1 (stereo not given) | -29 | -5 | -1% | 2 | -2.8
C#CCNC(=O)c1cccn1-c1ncc(C(F)(F)F)cc1Cl | . | -7 | -3% | -9 | 2.9
CC(=O)Nc1ccc(/C(C)=N/NC(=O)C2CC2c2ccccc2)cc1 (stereo not given) | -27 | 4 | -3% | -1 | 0.5
CCCc1n[nH]c(=S)n1Cc1ccco1 | . | . | -3% | 6 | 2.4
COc1ccc(-c2cc(C(=O)N3CC4(C)CC3CC(C)(C)C4)no2)cc1OC (stereo not given) | -19 | 11 | 31% | 97 | -1.6
Cc1ccc(S(=O)(=O)Nc2cc(S(=O)(=O)N3CCCCC3)ccc2N2CCOCC2)cc1 | . | 25 | 7% | -8 | -1.9
O/N=C1\CCCc2c1nc(-c1ccccc1F)n2O | . | . | 0% | -3 | 3.6

The closing 4 compounds of the section before open the next one:
SMILES | YopH inh | Arbovirus anti | Mtb H37Rv | Mtb betalactam | RecA intein inh | others
CCCc1n[nH]c(=S)n1Cc1ccco1 | . | . | -3% | 6 | 2.4
COc1ccc(-c2cc(C(=O)N3CC4(C)CC3CC(C)(C)C4)no2)cc1OC (stereo not given) | -19 | 11 | 31% | 97 | -1.6
Cc1ccc(S(=O)(=O)Nc2cc(S(=O)(=O)N3CCCCC3)ccc2N2CCOCC2)cc1 | . | 25 | 7% | -8 | -1.9
O/N=C1\CCCc2c1nc(-c1ccccc1F)n2O | . | . | 0% | -3 | 3.6
COc1ccc(Cl)cc1S(=O)(=O)N(C)CC(=O)NCc1ccc2c(c1)OCO2 | . | . | . | -2 | 3.2
CC(C)(C)c1nc(SCC(=O)Nc2ccc(N3CCOCC3)cc2)c2ccccc2n1 | -22 | 9 | -2% | -7 | -0.7
COCCNC(=O)c1ccc(CSCc2cccc(Cl)c2)o1 | . | . | . | 9 | 1.4
CCc1cccc(NC(=O)C2CCN(S(=O)(=O)c3ccc4c(c3)CC(C)N4C(C)=O)CC2)c1 (stereo not given) | . | . | . | -10 | 1.9
CCC(C)NC(=O)CN1C(=O)CC(C)(C)S(=O)(=O)c2ccccc21 (stereo not given) | -43 | 8 | 6% | 4 | 0.9
Cc1cnc(CN(C)Cc2nc(Cc3cccc(C(F)(F)F)c3)no2)[nH]1 | . | 5 | 9% | -2 | 0.7
Cc1cc(C)cc(NC(=O)c2cccc(NC(=O)C3C4CC5OC(=O)C3C5C4)c2)c1 (stereo not given) | -6 | 3 | 5% | 16 | 2.0
Cc1cc(C)c(NC2=NCCCS2)c(C)c1 | -17 | -2 | -11% | 44 | -1.7
CC#C[C@]1(O)CC[C@H]2[C@@H]3CCC4=CC(=O)CCC4=C3[C@@H](c3ccc(N(C)C)cc3)C[C@@]21C | -22 | -10 | 3% | 2 | 9.9
CC(C)(C)N(Cc1ccccc1)C(=O)CCc1ccccc1 | . | -3 | 9% | 1 | 11
C=C(C)CNC(=S)NNC(=O)CCn1c2ccccc2c2ccccc21 | -32 | -5 | 14% | 1 | 3.1
Cn1c(SCc2nc3ccccc3s2)nnc1-c1cccs1 | -38 | -6 | -5% | -17 | 3.1
Oc1ccc(-c2csc(-c3c[nH]c4ccccc34)n2)c(O)c1 | -33 | -21 | 77% | 71 | 29
CCOc1ccc(CCNC(=O)C2CCN(S(=O)(=O)N3CCOCC3)CC2)cc1OCC | -28 | 6 | -5% | -9 | 1.3
O=C(COc1ccc(F)cc1)N(c1ccccn1)C1CCCCC1 | -25 | -3 | 3% | 3 | 2.1
COc1ccc(CCC(=O)Nc2nccs2)cc1OC | . | . | . | 6 | -2.4
COC(=O)N/N=C(\C)c1ccc(Br)cc1 | -7 | -1 | 5% | -6 | 14
CC(C(=O)NCC1CCCO1)N1C(=O)C2C3CC(C(Br)C3Br)C2C1=O (stereo not given) | . | . | 1% | -8 | -0.1
CCN(CC)S(=O)(=O)c1cccc(-c2nnc(SCC#N)n2Cc2ccccc2)c1 | -14 | -2 | -2% | -7 | 2.7
CN(C)C(=O)Oc1ccc(-c2cn3cc(Cl)ccc3n2)cc1 | -12 | 7 | 14% | 7 | 0.3

6 compounds from above, sorted by length of the SMILES, rising:
SMILES | YopH inh | Arbovirus anti | Mtb H37Rv | Mtb betalactam | RecA intein inh | others
COC(=O)N/N=C(\C)c1ccc(Br)cc1 | -7 | -1 | 5% | -6 | 14
Cn1c(SCc2nc3ccccc3s2)nnc1-c1cccs1 | -38 | -6 | -5% | -17 | 3.1
CN(C)C(=O)Oc1ccc(-c2cn3cc(Cl)ccc3n2)cc1 | -12 | 7 | 14% | 7 | 0.3
CC(C(=O)NCC1CCCO1)N1C(=O)C2C3CC(C(Br)C3Br)C2C1=O (stereo not given) | . | . | 1% | -8 | -0.1
CCN(CC)S(=O)(=O)c1cccc(-c2nnc(SCC#N)n2Cc2ccccc2)c1 | -14 | -2 | -2% | -7 | 2.7
CCOc1ccc(CCNC(=O)C2CCN(S(=O)(=O)N3CCOCC3)CC2)cc1OCC | -28 | 6 | -5% | -9 | 1.3

Next part
SMILES | YopH inh | Arbovirus anti | Mtb H37Rv | Mtb betalactam | RecA intein inh | others
S=C(c1ccc(N2CCCC2)c(Br)c1)N1CCCCC1 | . | 0 | 1% | 7 | 7.7
Brc1ccc(C2=Nn3cnnc3SC2)cc1 | . | . | . | -7 | -0.8
COC(=O)c1sccc1NC(=O)CSc1ccccc1NS(=O)(=O)c1cc(Cl)ccc1Cl | -34 | -2 | -10% | -20 | 4.8
O=C1CN(C(=O)COC(=O)CNS(=O)(=O)c2ccccc2)c2ccccc2N1 | . | 2 | 1% | 4 | -1.5
Cc1cc(NS(=O)(=O)c2ccc(NC(=O)/C=C/c3c(F)cccc3Cl)cc2)no1 | . | . | . | 15 | 2.0
COc1ccc(CCNC(=O)C23CCC(C)(C(=O)O2)C3(C)C)cc1OC (stereo not given) | . | 0 | -1% | 1 | 2.3
CCNC(=S)N1CCC(C(=O)c2ccc(Cl)cc2)CC1 | . | . | . | -6 | 0.9
Cc1ccc(NC(=O)N(CCC(=O)O)Cc2ccccc2)cc1 | . | . | -1% | -2 | 1.8

The list is partial; rates above refer to the full screens.
